High-throughput results as filed in PubChem BioAssay.
Vaccinia Venus: inhibitors of vaccinia virus (Venus reporter) | 0.46% of 330,000 active | Vaccinia virus Venus reporter expression, fluorescence | Potency, µM (top dose mostly 36.5 µM), for the others: at the top dose activity change, negative = inhibition, most hits filed as inhibitors; active means well fitted inhibition curve with a large enough effect; inconclusive means small, poorly fitted or top-dose-only effect; inactive means no such curve, though single readings can be large or run the other way; tested in A549 cells; also: nearly all actives have a fitted effect of over 30% in size; inactives centre near -10
VACV mCherry inh: inhibitors of vaccinia virus infection (mCherry reporter signal) | AID 720579 | Vaccinia virus mCherry reporter infection, fluorescence; about a quarter of the inactives have no number | Potency, µM (series often up to 36.5 µM), for inactives: top-dose activity change, negative = inhibition, hits mostly inhibitors | 0.63% of 310,000 active; active = well fitted inhibition curve with a large enough effect; inconclusive = small, poorly fitted or top-dose-only effect; inactive = no such curve, though single readings can be large or run the other way; tested in A549 cells; also: nearly all actives have a fitted effect of over 35% in size; inactives centre near -10
* hit, by the source's call; i = inactive; ? = inconclusive; . = not tested or not shown; & = joins results of further samples; [ ] = remark or other dose. % is scaled to controls: 0 for no effect and ±100 for the full control effect; potency is read from the fitted curve at half-maximal effect.

canonical_smiles	Vaccinia Venus	VACV mCherry inh
O=C(NCc1ccco1)c1ccc(C(=O)NCc2ccco2)cc1	-5%	i
Cc1ccc(C)c(NC(=O)CN(C)C(C)C(=O)N2CCCC2)c1 (stereo not given)	-12%	-12%
CC(=O)NCCC(=O)N(C)CC1CCN(CCc2cccc(C(F)(F)F)c2)CC1	-7%	i
CCn1nc(C(=O)Nc2ccc3c(c2)OCCO3)c2ccccc2c1=O	-4%	-7%
CCCCN1C(=O)C(CC(=O)NCC2CCCCC2)CC(C(=O)N(C)C)=C1C (stereo not given)	-3%	i
O=c1c(N2CCOCC2)nsnc1N1CCOCC1	-9%	.
CCC[C@H]1COCCS(=O)(=O)N1Cc1ccccc1	-18%&-14%	i
Cc1nn(C(=O)c2ccco2)c(C)c1Br	-10%	.

The closing four entries of the part above are carried over, then new ones follow.
canonical_smiles	Vaccinia Venus	VACV mCherry inh
CCCCN1C(=O)C(CC(=O)NCC2CCCCC2)CC(C(=O)N(C)C)=C1C (stereo not given)	-3%	i
O=c1c(N2CCOCC2)nsnc1N1CCOCC1	-9%	.
CCC[C@H]1COCCS(=O)(=O)N1Cc1ccccc1	-18%&-14%	i
Cc1nn(C(=O)c2ccco2)c(C)c1Br	-10%	.
NC(=O)C1CCN(C(=O)c2ccc3c(c2)S(=O)(=O)c2ccccc2C3=O)CC1	-13%	?
CCc1ccc(NC(=O)c2ccccc2SC)cc1	1%	i
Cc1ccc(S(=O)(=O)N2CCC(=O)N(CCOCc3cccc(F)c3)CC2)cc1	-19%	-9%
COc1cccc(CN(C(=O)c2ccco2)C(C(=O)NC2CCCC2)c2cccnc2)c1 (stereo not given)	-2%	.
COc1ccc(CNC(=O)CN(C(=O)CCC(=O)Nc2ccccn2)c2cccc(C)c2)cc1	-4%	i
O=S(=O)(NC1=NCCCCC1)c1ccc2ccccc2c1	-5%	i
C=CCc1cc(C)ccc1OCCCC(C(=O)OCC)C(=O)OCC	-12%	-8%
CCC(c1nnnn1-c1c(C)cccc1C)N1CCN(c2ccccn2)CC1 (stereo not given)	-9%	-14%
CC(=O)N1CCN(S(=O)(=O)c2cccc(C(=O)OCc3ccc(F)cc3)c2)CC1	-18%	-28%
CC1S/C(=N/N=C/c2ccco2)NC1=O (stereo not given)	5%	.
O=C(O)CSc1nnc(COc2cccc3cccnc23)n1-c1cccc(C(F)(F)F)c1	0%	-2%
CCn1c(-c2cc(OC)c(OC)c(OC)c2)n[nH]c1=S	-6%	-11%
COc1ccc(C(=O)Oc2c(Sc3ccc(C)cc3)c(C)nn2C(C)(C)C)cc1OC	-26%	?
CCOC(=O)C1=C(COC(=O)C2CC(=O)N(c3ccc(C)cc3)C2)NC(=O)NC1C (stereo not given)	-5%	-14%
Cc1ccc2nc(-c3cccc(Cl)c3)c(Cc3ccccc3)n2c1	3%	-14%
COC(=O)c1c(NC(=O)COC(=O)CNC(=O)c2ccco2)sc(C)c1C	-8%	-14%
O=C(COC(=O)c1ccc[nH]c1=O)NCCC1=CCCCC1	-1%	-10%
N/C(=N\O)c1cn(Cc2ccccc2Cl)c2ccccc12	?	-11%
CC[C@]12c3[nH]c4ccc(Cl)cc4c3CCN1C(=O)[C@@H](CC(=O)NC/C=C(\C)CCC=C(C)C)C[C@@H]2C(=O)N1CCN(C(=O)C2CC2)CC1	?	-25%
COc1ccc(N2C(=O)CSC23C(=O)Nc2ccccc23)cc1OC (stereo not given)	-9%	-7%
OCC(O)/C=N/Nc1nc2ccccc2s1 (stereo not given)	12%	?
Cc1cc(C)c(N=C2C(=O)Nc3ccccc32)c(C)c1	-12%	-14%
CC(C)N1CCC(C)(C(=O)Nc2cccc(Oc3ccccc3)c2)C1 (stereo not given)	-4%	-8%
Cc1ccc(NC(=O)N2CCc3ccccc32)cc1C	-8%	i
CC(Sc1nnc(C(F)(F)F)n1C)C(=O)Nc1ccc(S(N)(=O)=O)cc1 (stereo not given)	-3%[7.34 µM]	-14%[7.34 µM]
O=C(O)COc1ccc(/C=N/n2cnc3scc(-c4cccs4)c3c2=O)cc1	-12%	-2%
CNc1cc(-c2ccc(CC#N)cc2)ncn1	-15%	2%
Cn1c(=O)n(C)c2cc(N3CCOCC3)c(NC(=O)c3ccc(Cl)cc3)cc21	0%	-15%
NC(=O)C1c2ccccc2CSc2ccccc21 (stereo not given)	-20%	0%
COc1ccc2c(c1)-c1nc(-n3ncc(C(=O)NC[C@@H]4CCCN5CCCC[C@H]45)c3C)ncc1CC2	?	13µM*
CN=c1scc(-c2ccc(Br)cc2)n1C	-19%	.
Cc1ccc(C)c(N(C(=O)c2csnn2)C(C(=O)NC2CCCC2)c2cccnc2)c1 (stereo not given)	-17%	-8%
CSc1ccc(CNc2ccc(C)c(C)c2)cc1	-14%	-15%
COc1ccc(N(C(=O)c2ccco2)C(C(=O)NC2CCCC2)c2ccc(N(C)C)cc2)cc1OC (stereo not given)	-10%	-19%[1.46 µM]
O=C(CCSCCC(=O)NCc1ccccc1)NCc1ccccc1	-13%	i
Cc1c(C(=O)O)cccc1-c1ccc(C=O)o1	-5%	i
COc1ccc(CNC(=O)OC23CN(C(=O)OC(C)C)N(C(=O)OC(C)C)CC2(O)CN(S(=O)(=O)c2ccc(C)cc2)C3)cc1OC (stereo not given)	-24%	-3%
O=C(OCc1c(-c2ccccc2)ncc2ccccc12)c1cccc(Br)c1	-11%	-3%
Cc1noc(C)c1S(=O)(=O)N1CCC(C(=O)NCCN2CCC(C)CC2)CC1	-10%	i
CCOc1ncccc1C(=O)N(C)CC(=O)Nc1ccc(F)cc1	-9%	-3%
COCc1cc(C)c2c(N)c(C#N)sc2n1	-5%	.
CC1CC(C(O)c2ccccn2)C(=O)C(C(O)c2ccccn2)C1 (stereo not given)	-2%	?
CC(=O)c1ccc(F)c(-c2cc(C)cc3c2OC(CNC(=O)c2cnc4ccccn4c2=O)C3)c1 (stereo not given)	?	?
O=C(CN1CCN(c2ccccn2)CC1)Nc1ccccc1	-13%	.
O=C(NCc1n[nH]c(=S)n1-c1ccc([N+](=O)[O-])cc1)c1ccc(S(=O)(=O)N2CCOCC2)cc1	-17%	-15%
O=[N+]([O-])c1cc(/C=N/O)ccc1N1CCCC1	-8%	i
O=C(Nc1ccc(Cl)cc1)Nc1ccc(Cl)c(Cl)c1	11µM*	13µM*
O=C(c1ccc(Br)cc1)N1CCN(c2ncccn2)CC1	-1%	-18%
Cc1c(C(=O)N(C)Cc2nccs2)sc2ncnc(NCC3CCCO3)c12 (stereo not given)	-7%	-9%
COc1ccc(C(=O)NC2CCN(C(=O)NC3CCCCC3)CC2)cc1	-15%	-8%
CCOC(=O)C1CCN(C(=O)CC(NS(=O)(=O)c2ccc(OC)cc2)C(C)C)CC1 (stereo not given)	-5%	-1%
O=C(NNC(=O)c1cc2ccccc2o1)c1ccc(Cl)cc1	-10%	-14%
CC1(C(=O)NS(=O)(=O)c2ccccc2Cl)CCN1C(=O)Cc1cccc2ccccc12 (stereo not given)	-4%	19%
CCCCC(C(=O)NC1CCCC1)N(Cc1ccccc1)C(=O)c1snc(C(N)=O)c1N (stereo not given)	-4%	i
COc1ccc(C(=O)NCCn2cc(SCC(=O)Nc3ccc(C)cc3)c3ccccc32)cc1	-17%	-23%
COC(=O)c1c(-c2ccc(OC)cc2)sc2ccc(OC)cc12	-10%	-9%

Further entries follow.
canonical_smiles	Vaccinia Venus	VACV mCherry inh
O=C(CN1C(=O)C2(SCC(=O)N2c2ccc(F)c(F)c2)c2ccccc21)NCCc1ccccc1 (stereo not given)	-14%	-9%
O=C(NCc1nc2ccccc2[nH]1)C1=C[C@H](c2ccc3c(c2)OCO3)C[C@H](OCCCCO)O1	-18%	i
COc1ccc(N2CCN(Cc3cc(=O)oc4cc(C)c(Cl)c(C)c34)CC2)cc1	-9%	-19%
Cc1ccc(NC(=O)CCc2nnc3ccc(NCc4ccco4)nn23)cc1	-15%	i
COc1cccc(NC(=S)N(CCc2ccc(OC)c(OC)c2)Cc2ccccn2)c1	-11%	i
COc1cc(NC(=O)c2cc(S(=O)(=O)N3CCc4ccccc43)cn2C)cc(OC)c1OC	-16%	-18%
O=C(Nc1cccc(NC(=O)c2cccs2)c1)c1ccc(F)cc1	-12%	-3%
CC1(C)SC2c3ccccc3C(=O)N2[C@@H]1C(=O)O (stereo not given in full)	-4%	-13%
C[C@@H](CN1C(=O)C(=O)NC[C@@H]1Cc1ccc(O)cc1)NC(=O)Cc1ccccc1	-8%	-5%
CCC1(C(=O)OC)CCc2c(cc(OC)c3ccccc23)C1=O (stereo not given)	0%	-10%
COCCN1C(=O)c2[nH]nc(-c3ccccc3O)c2C1c1ccc(OC)cc1 (stereo not given)	-2%	-13%
COC(=O)c1cccc(-n2c(C)cc(C=O)c2C)c1	-5%	-12%
CC(C)(C)OC(=O)C[C@@H]1C/C=C\C[C@@H](CC(=O)N[C@@H](CO)Cc2ccccc2)C(=O)N2CCC[C@@H]2COC1=O	-14%	-18%
O=C(COC(=O)CNC(=O)c1ccccc1F)Nc1ccc2c(c1)OCCO2	-8%	-14%
Cc1c(C(=O)NCC2CC2)sc(=O)n1Cc1cccc(F)c1	6%	30%
CCc1nc2ccccc2n1CC(C)C(=O)O (stereo not given)	-1%	-15%
COc1ccc(CNC(=O)c2ccc(-n3cncn3)c3ccoc23)cc1OC	-10%	8%
COc1ccccc1CNC(=O)c1cccc(S(=O)(=O)N2CCN(C)CC2)c1	1%	1%
CCOC(=O)c1cc(NC(=O)c2ccc(F)cc2)c(=O)n2c1oc1ccccc12	-2%	2%
O=C(NCCCn1ccnc1)c1ccc(OCC(F)(F)F)cc1	11%	-5%
COc1ccc2c(c1)CCc1sc(NC(=O)c3cccc(Br)c3)nc1-2	-10%	-6%
N#Cc1ccc(N2CCN(C(=O)c3cccc(F)c3)CC2)c(F)c1	5%	-9%
C=C(C)C(=O)Nc1cccc(C2=NOC3(C2)C[C@@H](C(N)=O)N(C(=O)/C=C/C=C/C)C3)c1 (stereo not given in full)	-5%	-22%
Cc1ccc(CNC(=O)c2ccc(-n3cnc4cccnc43)cc2)cc1	-1%	-15%
Cc1ccnc(SCCn2c(N3CCN(c4ccccc4)CC3)nc3c2c(=O)[nH]c(=O)n3C)n1	-1%	i
COc1ccc(OCC(=O)N/N=C/c2ccsc2)cc1	0%	i
NC(=O)[C@@H]1CCCN1C(=O)CC1(c2cccc(F)c2)CC(=O)N(C2CCCC2)C1=O (stereo not given in full)	2%	-4%
ClC(=C\c1ccccc1)/C=N/N1CCN(c2ccccn2)CC1	-9%	?
Cc1ccc(OCCN(C)C(=O)C2CCC(=O)N(Cc3ccccc3F)C2)cc1 (stereo not given)	-10%	-9%
CCCN(C(=O)COC(=O)c1nc2nccc(C)n2n1)C1CCS(=O)(=O)C1 (stereo not given)	-5%	-7%
c1ccc(-c2sc3ccccc3c2-c2ccc(OCCN3CCOCC3)cc2)cc1	-12%	i
COc1ccccc1-n1c(O)c(C=NCc2ccc3c(c2)OCO3)c(=O)[nH]c1=O	-18%	i
Cc1ccccc1NC(=O)COC(=O)c1ccccc1OCC(=O)Nc1ccc(Br)cc1	-23%	-14%
COC(=O)c1ccc(NC(=S)NC(=O)c2cccnc2)cc1	0%	-3%
O=C(NCc1ccccc1)C(c1ccc(-c2ccccc2)cc1)n1c(=O)c(-c2ccco2)nc2ccccc21 (stereo not given)	-5%	-12%
O=P1(N(CCCl)CCCl)NCCCO1 (stereo not given)	-11%&-16%	-20%&-14%
COC(=O)c1nnn(-c2nonc2N)c1CN1CCc2ccccc21	?	.
Cc1ccc(Cl)cc1N(C)C(=O)c1cc2c(Cl)nc3ccccc3c2s1	-3%	3%
CCOc1ccc(C(=O)N2CCN=C2SC)cc1OCC	-9%	-2%
COc1ccc(N2CCN(S(=O)(=O)c3ccc(OC)c(C(=O)N4CCCCC4)c3)CC2)cc1	-6%	2%
Nc1cc(C2CCCC2)nn1-c1ccccc1	-17%	.
O=C(Nc1ccccc1Cc1ccccc1)c1oc2ccccc2c1COc1ccccc1	-17%	-11%
Cc1cccc(-c2noc(-c3ccc(N4CCOCC4)c([N+](=O)[O-])c3)n2)c1	1%	-13%

One compound at a time, as listed above:
O=C(NCc1ccccc1)C(c1ccc(-c2ccccc2)cc1)n1c(=O)c(-c2ccco2)nc2ccccc21 (stereo not given) across the screens: Vaccinia Venus = -5%; VACV mCherry inh = -12%
CC(C)N1CCC(C)(C(=O)Nc2cccc(Oc3ccccc3)c2)C1 (stereo not given) across the screens: Vaccinia Venus = -4%; VACV mCherry inh = -8%
Cc1ccccc1NC(=O)COC(=O)c1ccccc1OCC(=O)Nc1ccc(Br)cc1 across the screens: Vaccinia Venus = -23%; VACV mCherry inh = -14%
